Sfp inh = inhibitors of Bacillus subtilis Sfp phosphopantetheinyl transferase; Biochemical Sfp PPTase activity, qHTS; Potency, µM, inactives show max response, negative = inhibition, most hits filed as inhibitors; 310,000 compounds, 3.5% hits; AID 1490; active means well fitted inhibition curve with a large enough effect; inconclusive means small, poorly fitted or top-dose-only effect, or another doubt; inactive means no such curve, though single readings can be large or run the other way;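 further: the enzyme is Sfp with the accession as filed and its product quenches rhodamine fluorescence; potency means the concentration at half of the fitted maximal effect; 0% = enzyme reaction without inhibitor and -100% = no enzyme wells; top concentration of the series not given in the record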
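With Hepes-Na pH 7.6 buffer containing 10 mM MgCl2, Sfp (15 nM) modified BHQ-2-YbbR (12.5 uM) using rhodamine-CoA (5 uM). Two reads 30 minutes apart at 525/598 nm yielded each well's rate.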
TRPML1 blocker = inhibitors of human TRPML1 channel; TRPML1-inducible cells, Ca2+ dye fluorescence, FDSS; stronger effect = lower value; inhibition of EC80 agonist-evoked calcium signal; activity change, negative = inhibition, % (test concentration not listed); 390,000 compounds, 0.02% hits; in the data active means activity change below about -50%; inconclusive means about -30% to -50%; inactive means above about -30%;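 further: stimulus is agonist 54-4 at its EC80 concentration; on the % scale 0 is the no-effect control and ±100 the full control effect; compound concentration not given in the record; the text of the record puts the active cut at -80%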
Target sequence (Q9GZU1 whole entry, looked up): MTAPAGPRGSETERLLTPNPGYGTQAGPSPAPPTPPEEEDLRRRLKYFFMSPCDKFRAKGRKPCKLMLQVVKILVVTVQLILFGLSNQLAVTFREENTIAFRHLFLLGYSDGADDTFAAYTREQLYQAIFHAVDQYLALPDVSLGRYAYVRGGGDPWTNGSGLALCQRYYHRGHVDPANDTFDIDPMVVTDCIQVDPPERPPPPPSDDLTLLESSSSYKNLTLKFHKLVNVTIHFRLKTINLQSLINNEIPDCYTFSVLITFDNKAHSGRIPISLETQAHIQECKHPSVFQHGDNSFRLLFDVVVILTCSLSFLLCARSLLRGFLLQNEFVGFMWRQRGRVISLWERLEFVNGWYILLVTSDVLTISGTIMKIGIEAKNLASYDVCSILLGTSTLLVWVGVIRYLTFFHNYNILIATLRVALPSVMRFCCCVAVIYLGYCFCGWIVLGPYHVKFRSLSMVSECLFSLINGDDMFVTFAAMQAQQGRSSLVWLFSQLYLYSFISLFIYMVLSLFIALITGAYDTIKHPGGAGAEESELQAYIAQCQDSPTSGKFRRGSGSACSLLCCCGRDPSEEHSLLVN
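Tet-induced TRPML1-DL cells loaded with Ca8 no-wash calcium dye were read kinetically on FDSS. Compound addition was followed by EC80 agonist 54-4 (4 uM final); inhibition was read over 110 s.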
PINK1 expr mod = modulators of PINK1 expression | PINK1 immunofluorescence, high-content cytometry, 24 h | Potency, µM (series often up to 76.6 µM), for inactives: at the highest dose activation (PINK1 increase), hits mostly activators | 410,000 compounds, 0.2% hits; active = well fitted activation curve with a large enough effect; inconclusive = small, poorly fitted or top-dose-only effect; inactive = flat fitted curve, though single readings scatter; cell line not stated here;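 further: potency means the concentration at half of the fitted maximal effect; % of control where 0% means no effect; nearly all actives have a fitted effect of over 65% in size; a mitochondrial uncoupler was the plate control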
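Stable cell line treated 24 h with compounds at 5 concentrations (CCCP controls), then fixed and immunostained for PINK1 plus nuclear and cell stains; PINK1 immunofluorescence quantified by laser-scanning microplate cytometry.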
Menin MLL FP FL = displaces fluorescein MLL peptide from human menin | Fluorescence polarization, fluorescein-MLL peptide displacement from menin | FP activity change, % at 61.4 µM | 290,000 tested, under 10 active; inconclusive = falling polarisation curve, or a change in total fluorescence; inactive = total fluorescence flat and polarisation flat or rising; no compound was filed as active; the % refers to the polarisation; negative = inhibition;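 further: % of control where 0% means no effect; inhibitors lower the polarisation; unlabelled MLL peptide was the positive control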
ClpP mod = qHTS Assay for Activators of ClpP. ATP-dependent Clp protease proteolytic subunit (Bacillus subtilis (strain 168)), P80244. purified B. subtilis ClpP, FRET peptide cleavage, 20 min. Potency, µM (doses to about 57.5 µM), for the others: top-dose activity change, negative = active. 340,000 compounds, 1.9% hits. AID 651965, 2013; active = well fitted falling curve with a large enough effect; inconclusive = small, poorly fitted or top-dose-only effect; inactive = no such curve, though single readings can be large or run the other way; further: potency means the concentration at half of the fitted maximal effect; the source files actives as falling curves though it sought activators and does not explain the sign; nearly all actives have a fitted effect of over 65% in size; many hits overshoot -100%
Target sequence (P80244 whole entry, looked up): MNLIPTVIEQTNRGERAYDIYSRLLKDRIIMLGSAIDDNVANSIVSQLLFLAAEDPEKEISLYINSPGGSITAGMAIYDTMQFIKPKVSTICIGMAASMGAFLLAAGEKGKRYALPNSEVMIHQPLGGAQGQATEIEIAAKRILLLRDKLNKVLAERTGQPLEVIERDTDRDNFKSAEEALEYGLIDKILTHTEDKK
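Buffer: 100 mM Tris/HCl pH8, 100 mM KCl, 0.05% low protease BSA, 2.5% glycerol, 0.01% Tween-20. ClpP 10 microg/mL final; 20 min RT; delta FRET normalized to ADEP and DMSO controls.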
TRPV1 potentiator = human TRPV1 potentiation. Q8NER1. TRPV1-expressing cells, Fluo-8 calcium influx, capsaicin EC20 potentiation; host cell line not named in the record; control for the full effect not named in the record. potentiation, % at 8.33 µM. 320,000 compounds, 0.02% hits; active means potentiation above 80%; inconclusive means 30% to 80%; inactive means below 30%; further: 0% is about no effect
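TRPV1-expressing cells were cultured overnight at 35.5C and loaded with Fluo-8 calcium dye for 40 to 90 min at room temperature. After a 10 s baseline, compound was added and calcium influx was read kinetically for 3 min (ex 480/em 520 nm).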
TRPML1 agonist = agonists of human TRPML1 channel | TRPML1-expressing cells, Ca2+ dye fluorescence, FDSS; host cell line not named in the record; reference of the full effect not given here | activation, % (concentration not given with the values) | 410,000 compounds, 0.12% hits; in the data active = activation above about 50%; inconclusive = about 30% to 50%; inactive = below about 30%; further: 0% is about no effect; the text of the record puts the active cut at 80%
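Tetracycline-induced TRPML1-DL cells are seeded and incubated overnight before loading with a no-wash Ca2+ dye and quencher. Agonist activity is taken from the 110 s fluorescence read following compound pin-transfer on an FDSS, before EC80 54-4 challenge.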
Active calls of the source: *; ? = inconclusive; . = no result given; [ ] = another dose, or the depositor's remark.

SMILES	Sfp inh	TRPML1 blocker	PINK1 expr mod	Menin MLL FP FL	ClpP mod	TRPV1 potentiator	TRPML1 agonist
N#Cc1ccccc1-n1c(N)c(C(=O)N2CCCC2)sc1=S	25.1µM*	-3.4	4.8%	2.9	-4.1%	-7.3	1.0
CCOC(=O)c1[nH]c(C(=O)O)c(CCN(CC)CC)c1C	20.7%	-1.7	.	-0.4	-0.5%	15.6	0.0
CCN1C(=O)C(O)(C2COC(C)(C)CC2=O)c2cc(Br)ccc21 (configuration not stated)	-2.5%	0.3	8.0%[38.3 µM]	-0.1	0.4%	1.4	0.3
Cc1cc(C)c2oc(C(=O)Nc3ccc(S(=O)(=O)N4CCCC(C)C4)cc3)cc(=O)c2c1 (configuration not stated)	8.0%	0.2	5.6%	.	.	0.5	0.4
Cc1cn(C2C=CC(CO)O2)c(=O)[nH]c1=O (configuration not stated)	-6.5%	17.7	-0.8%	4.1	1.0%	-28.8	-0.8
Cc1ccc(NC(=O)c2ccc(CSc3nnc(C)s3)cc2)c(C)c1	6.2%	33.1	2.0%	2.2	0.8%	-7.5	-0.6
CCCCn1c(=O)n(CC2CCC(C(=O)NCCCOC)CC2)c(=O)c2sccc21 (configuration not stated)	.	0.7	1.0%	.	-1.2%	.	0.4
COc1ccc(NC(=O)Nc2ccccc2OC)cc1	0.9%	-16.0	-1.7%[38.3 µM]	-2.7	0.4%	1.1	-0.4
O=C(NCCO)c1nc2ccccc2s1	5.9%	7.4	-1.3%	-0.1	-9.3%	-0.9	1.2
COc1ccc(-c2cc(C(=O)Nc3ccccc3N3CCOCC3)c3ccccc3n2)cc1OC	-4.0%	33.6	1.1%	0.4	.	4.6	2.0
CC(C)N(C(=O)Cn1c(Cl)nc2ccccc21)C(C)C	11.1%	15.2	0.0%	-1.4	-0.2%	4.6	-0.6
CCOc1ncccc1C(=O)NCc1ccccc1	7.5%	.	.	6.4	.	1.9	.
COCc1cccc(-c2csc(C(C)(O)c3cccc(F)c3)n2)c1 (configuration not stated)	.	.	4.2%	.	-0.2%	.	-1.0
COc1ccc(OC)c2sc(NC(=O)C3=COCCO3)nc12	1.4%	-4.7	4.9%	-0.8	3.9%	.	0.1
C=CCNC(=S)NNC(=O)c1csc(CC)c1	7.3%	20.7	-0.4%	4.3	-2.4%	0.3	0.5

Not a retest: two of the compounds above.
SMILES	Sfp inh	TRPML1 blocker	PINK1 expr mod	Menin MLL FP FL	ClpP mod	TRPV1 potentiator	TRPML1 agonist
COCc1cccc(-c2csc(C(C)(O)c3cccc(F)c3)n2)c1 (configuration not stated)	.	.	4.2%	.	-0.2%	.	-1.0
COc1ccc(OC)c2sc(NC(=O)C3=COCCO3)nc12	1.4%	-4.7	4.9%	-0.8	3.9%	.	0.1

(list continues)
SMILES	Sfp inh	TRPML1 blocker	PINK1 expr mod	Menin MLL FP FL	ClpP mod	TRPV1 potentiator	TRPML1 agonist
C[C@H](CO)N1C[C@H](C)[C@@H](CN(C)CC2CC2)Oc2c(NS(=O)(=O)c3ccc(F)cc3)cccc2C1=O	.	9.9	0.4%	.	-3.0%	.	-0.1
COc1ccc(S(=O)(=O)Nc2cccc(S(=O)(=O)N(C)C)c2)cc1[N+](=O)[O-]	.	9.7	3.8%	.	1.0%	.	-0.5
N/C(=N\OC(=O)COc1ccc(Cl)cc1Cl)c1ccccn1	-2.6%	-2.2	4.6%	-1.0	1.6%	15.0	1.4
CCn1c(/C=C/N(C(C)=O)c2ccccc2)[n+](CC)c2ccc(Cl)cc21	22.2%	-7.2	0.3%	1.3	-2.4%	1.4	-0.3
Cc1ccc(C(c2sc3ncnn3c2O)N2CC(C)CC(C)C2)cc1 (configuration not stated)	18.1%	5.4	-0.7%	-1.9	0.1%	-0.7	1.0
NC(=O)CSc1nccn1Cc1ccc2c(c1)OCO2	17.0%	4.6	-0.4%	-0.7	.	-4.1	0.3
COc1ccc(N(C(=O)C2CSC(=O)C2)C(C(=O)NC(C)(C)C)c2ccncc2)cc1 (configuration not stated)	24.0%	-8.1	2.0%	-2.4	-3.0%	-1.3	0.7
Cn1nnnc1SCc1cc(=O)n2ccsc2n1	10.7%	-5.3	1.5%[38.3 µM]	1.3	-1.1%	-7.8	3.4
CC(C)(C)NC(=O)Cn1nnc(-c2ccccc2Cl)n1	5.5%	12.8	19.3%[38.3 µM]	3.4	-0.4%	-0.9	0.0
CC1(C(=O)Nc2ccc3ccccc3c2)CCC(=O)N1CCc1c[nH]c2ccccc12 (configuration not stated)	.	.	0.0%	.	-2.3%	.	1.3
COc1ccc(/C=C/C(=O)NCc2ccccn2)cc1	23.8%	1.5	-0.9%	5.6	25.1µM*	4.9	0.2
O=C(CN1C2=NCCN2c2ccccc21)C12CC3CC(CC(C3)C1)C2	9.1%	10.4	5.5%	0.7	-1.3%	-4.0	-0.6
COc1ccc(NC(=O)CSc2nnc(-c3ccccn3)n2Cc2ccco2)cc1OC	11.7%	-6.0	.	-2.2	-1.0%	-21.6	-0.4
COc1ccccc1CCNC(=O)c1ccc(NC(=O)CC2SC(N3CCCC3)=NC2=O)cc1 (configuration not stated)	.	31.3	2.6%	.	0.6%	5.0	0.9
CC(=O)N(C)Cc1ccc(C(=O)CSc2nnc(C3CC3)n2C2CC2)cc1	.	-8.6	-1.0%	.	-0.8%	8.0	-0.6
CCN1CCc2nc(NC(=O)Cc3ccc4c(c3)OCCO4)sc2C1	-13.1%	9.7	-1.2%	1.7	-0.7%	7.6	-0.3
C=CCn1c(-c2ccc(C)cc2)nc2ccccc21	7.2%	-15.2	0.1%[38.3 µM]	-0.4	7.08µM*	-0.9	-0.4
O=C(NC(Cc1ccccc1)C(=O)O)c1ccc(S(=O)(=O)N2CCCC2)cc1 (configuration not stated)	-8.9%	8.9	2.8%[38.3 µM]	-3.8	1.6%	13.9	2.5
C/C(=N/NC(=O)c1ccoc1C)c1ccc(N2CCOCC2)cc1	0.3%	3.7	6.6%	-3.0	0.2%	-14.9	0.3
CN(C)C(=O)c1ccc(Nc2nnc(-c3ccc(O)cc3)c3ccccc23)cc1	-4.7%	19.4	3.9%	4.5	.	6.0	0.0
Cc1ccc(NC(=O)C2(C)CCN2Cc2ccc(OC(C)C)cc2)cc1 (configuration not stated)	.	.	1.3%	.	-2.3%	.	-0.3
COCCCn1cc(CN2CC(N3CCN(CCN(C)C)CC3)CS2(=O)=O)nn1 (configuration not stated)	.	.	-0.2%	.	-2.5%	.	-0.5
CCOC(=O)c1c(O)c(Cl)c(C)[nH]c1=O	19.2%	-7.4	1.7%	-5.1	.	0.3	0.8
CC(Sc1ccc(Cl)cc1)C(=O)Nc1ccccc1-c1ccccc1 (configuration not stated)	-11.6%	13.1	16.3%	1.6	-8.5%	?	4.2
O=C(NCc1cccnc1)Nc1ccc(Br)cc1	18.1%	-4.2	-0.2%	-2.6	-0.5%	9.2	-0.6
Cc1cc(C)n(CC(O)COc2cccc(OCC(O)Cn3nc(C)cc3C)c2)n1 (configuration not stated)	10.9%	15.0	-1.9%	5.6	0.7%	19.0	0.1
CCOCCCNC(=O)c1cc2c(=O)[nH]c3ccccc3c2s1	9.1%	3.3	2.1%	-1.8	.	-3.6	0.0
CCCCn1c(SCC(=O)NCCOC)nc2ccc(N3CCOCC3)cc2c1=O	10.3%	-15.0	0.6%	-0.8	?	5.0	0.2
COc1cccc(C2CC(C(F)(F)F)n3ncc(C(=O)O)c3N2)c1 (configuration not stated)	-2.5%	14.9	-2.1%	-5.8	-5.2%	-1.1	-0.6
O=C(c1cc(Cl)ccc1Cl)N1CCN(c2ccccn2)CC1	-5.1%	-11.1	1.6%	2.6	-18.3%	9.1	0.3
COc1cc(OC)c(/C=C/c2cc(/C=C/c3c(OC)cc(OC)cc3OC)[n+](C)c3ccccc23)c(OC)c1	.	.	39.8µM*	.	-11.7%	.	3.4
O=C(Nc1cccnc1)c1cn(-c2ccccc2)nc1-c1cccs1	12.9%	7.1	.	4.6	-2.6%	-12.5	-0.3
O=C(c1ccc(CS(=O)c2ccccc2Cl)o1)N1CCN(c2ccccc2)CC1 (configuration not stated)	8.9%	-5.5	3.1%	.	-1.2%	-5.5	0.3
CCCOc1ccc(N2C(=O)CC(SCCc3nc4ccccc4[nH]3)C2=O)cc1 (configuration not stated)	5.8%	-1.0	-0.1%	0.7	-0.7%	-4.4	1.4
CCC(C(=O)NCc1cccs1)n1nc(C)n2c(cc3occc32)c1=O (configuration not stated)	1.2%	-2.0	-0.8%	-1.6	-12.3%	19.9	1.5
CCOc1cccc(C(=O)Nc2ccc(N3CCCC3)cc2)c1	9.2%	-13.4	5.0%	0.8	.	-12.8	2.1
Cc1ccc(-n2nc3ccc(N)cc3n2)c(C)c1	-10.5%	-3.7	1.7%	-0.1	4.5%	2.5	-0.5
Cc1ccc(CNC(=O)CSc2nc3ccccc3c3nc(C)nn23)cc1	3.8%	.	.	11.8	.	3.7	.
COc1cc(-c2nc(C(=O)NC3CCN(Cc4ccccc4)CC3)cc3c2[nH]c2ccccc23)cc(OC)c1OC	13.2%	.	4.1%	4.8	4.7%	12.9	.
CCOC(=O)c1c(NC(=O)Cn2nc(C(=O)O)c3ccccc3c2=O)sc(CC)c1C	-6.6%	14.7	1.1%	4.4	1.4%	4.9	0.0
CC(=O)Nc1ccc(C2(O)COc3ccccc3O2)cc1 (configuration not stated)	18.6%	83.4	1.0%	0.4	-2.9%	-5.4	1.3
Cc1ccc(N2C(=O)c3ccc(N)cc3C2=O)cc1	16.7%	-13.5	-0.1%	-15.8	0.9%	1.8	1.3
CNc1nnc(-c2ccc(OC)cc2)s1	9.3%	28.9	0.0%	-1.9	-23.9%	3.6	1.4
COc1ccc(C(=O)COC(=O)CCNS(=O)(=O)c2ccccc2)c(OC)c1	.	20.7	-2.3%	.	-2.4%	3.0	-0.3
COc1ccccc1N1CCN(c2ncnc3nc[nH]c23)CC1	-10.5%	19.1	0.8%	2.9	-0.9%	4.8	-1.4
CCc1ccc2c(c1)c(=O)c(S(=O)(=O)c1ccc(Cl)cc1)cn2CC	.	-16.3	-0.6%	.	-10.6%	.	0.5
O=C(COC(=O)c1cccnc1Cl)NCc1cccs1	8.3%	-9.4	-0.1%	-2.7	.	-13.8	0.7
CCN(CC(=O)NCc1cccs1)C(=O)/C=C/c1cccc(Cl)c1Cl	.	-4.8	-0.7%	.	-1.3%	-20.3	0.1
NC(=O)C1(N2CCCCC2)CCN(CC(=O)Nc2cc(Cl)ccc2Cl)CC1	18.4%	-6.9	0.4%[38.3 µM]	2.0	-0.2%	-0.8	0.4

Screens: PubChem BioAssay, National Center for Advancing Translational Sciences (NCATS)
